High-throughput results: PubChem BioAssay, National Center for Advancing Translational Sciences (NCATS)
GLA inh pH 4.5 = blocks human alpha-galactosidase A at pH 4.5. purified enzyme, 4-MU-alpha-Gal fluorescence, pH 4.5. activity change, negative = inhibition, % at 105 µM. 230,000 tested, under 10 active; inconclusive = small, poorly fitted or top-dose-only inhibition, or a rising curve; inactive = flat fitted curve, though single readings scatter; no compound was filed as active;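 further: 0% = full activity with enzyme and -100% = basal without enzyme; dose as in the result columns while the protocol names 77 µM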
Rango dissoc inh = inhibitors of RanGTP-induced Rango-importin beta complex dissociation. O95149+P62826. Biochemical FRET Rango-importin beta, RanGTP-induced dissociation. Potency, µM (top dose mostly 46.1 µM), inactives show at the highest dose activity change, negative = inhibition. actives 0.071% (n = 340,000); active means falling FRET ratio curve, often poorly fitted, with flat reads before Ran was added; inconclusive means other falling curves, or compound fluorescence or quenching; inactive means flat or rising ratio curve;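 further: potency means the concentration at half of the fitted maximal effect; % of control where 0% means no effect; nearly all actives have a fitted effect of over 45% in size; -100% = wells without RanGTP and RCC1; the record marks most hits as doubtful in a second field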
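Rango FRET biosensor (snurportin-1 IBB flanked by N-terminal EYFP and C-terminal CFP10) at 0.1 uM, with 0.25 uM importin beta in PBS, 1mM DTT, 0.02% Tween-20, 0.1% BSA. 0.6 uM Ran, 2mM GTP and 0.2 uM RCC1 were then added for 45 min at room temperature. Inhibition read as loss of FRET rise.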
miR-21 reporter = raises the signal of a miR-21 reporter; HeLa miR-21 FLuc reporter, luciferase, 48 h; Potency, µM (series often up to 38.3 µM), for the others: at the highest dose reporter change, positive = more light; 340,000 tested, under 10 active; AID 2288; active = well fitted rising curve with a large enough effect; inconclusive = small, poorly fitted or top-dose-only effect; inactive = no such curve, though single readings can be large or run the other way;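 further: % of control where 0% means no effect; miR-21 action dims this reporter so a rising signal means less miR-21 action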
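HeLa cells endogenously expressing miR-21, stably carrying CMV-driven firefly luciferase with a downstream miR-21 binding site, 2000 cells/well. Titrations up to approximately 40 uM, 48 hours; luciferase luminescence read.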
Rango-impB inh = inhibitors of Rango-importin beta complex formation; Q14974; Rango CFP/YFP FRET sensor + importin beta, 45 min; Potency, µM (titrated, usually from 92.2 µM), for the others: at the top dose inhibition of complex formation; actives 0.031% (n = 340,000); active = rising FRET ratio curve, often small or poorly fitted; inconclusive = mostly compound fluorescence or quenching in the first reads; inactive = flat curves in all reads;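 further: potency means the concentration at half of the fitted maximal effect; 0% = DMSO wells and 100% = buffer wells lacking importin beta; nearly all actives have a fitted effect of over 15% in size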
Target sequence (Q14974 whole entry, looked up): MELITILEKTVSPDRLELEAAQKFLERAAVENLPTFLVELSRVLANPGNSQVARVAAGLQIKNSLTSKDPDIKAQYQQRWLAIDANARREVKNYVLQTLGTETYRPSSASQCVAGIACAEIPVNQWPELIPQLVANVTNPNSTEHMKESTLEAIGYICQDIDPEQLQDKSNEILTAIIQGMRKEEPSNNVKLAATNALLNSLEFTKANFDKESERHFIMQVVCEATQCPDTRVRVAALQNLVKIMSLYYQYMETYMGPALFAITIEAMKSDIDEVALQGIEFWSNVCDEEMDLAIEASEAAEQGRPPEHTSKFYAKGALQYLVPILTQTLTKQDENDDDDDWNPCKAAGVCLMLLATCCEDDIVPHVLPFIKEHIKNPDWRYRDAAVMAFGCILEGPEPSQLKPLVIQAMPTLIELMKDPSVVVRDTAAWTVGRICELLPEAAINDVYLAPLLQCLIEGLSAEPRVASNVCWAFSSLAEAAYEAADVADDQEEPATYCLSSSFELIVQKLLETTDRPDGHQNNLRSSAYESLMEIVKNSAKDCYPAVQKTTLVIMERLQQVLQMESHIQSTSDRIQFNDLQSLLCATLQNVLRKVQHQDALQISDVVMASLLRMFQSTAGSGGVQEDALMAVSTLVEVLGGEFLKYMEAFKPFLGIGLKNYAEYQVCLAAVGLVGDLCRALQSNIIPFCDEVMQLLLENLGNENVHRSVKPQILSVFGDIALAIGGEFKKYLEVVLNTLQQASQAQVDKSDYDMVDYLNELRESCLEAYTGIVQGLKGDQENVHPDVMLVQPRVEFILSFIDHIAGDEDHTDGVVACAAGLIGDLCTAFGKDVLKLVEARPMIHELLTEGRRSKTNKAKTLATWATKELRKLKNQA
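Inhibition scored from the CFP 486 nm/YFP 530 nm FRET ratio 45 min after adding 0.125 microM importin beta to 50 nM Rango biosensor preincubated 5 min with compound (room temperature, PBS with DTT, Tween-20, BSA). No-importin wells as positive control.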
The depositor's hits bear a star; ? = inconclusive; . = not tested or not shown; & = joins results of further samples. A portion of the library; the hit share may differ from the screen's.

The opening six records, ahead of the listing:
nr	SMILES	GLA inh pH 4.5	Rango dissoc inh
1	COC(=O)COc1ccc(NS(=O)(=O)c2cccc([N+](=O)[O-])c2)cc1	5.8	2.0%
2	Cn1c(=O)oc2cc(S(=O)(=O)N3CCN(c4ccccc4)CC3)ccc21	-3.5	-0.2%
3	Cc1cccc2sc(N(CCCN(C)C)C(=O)c3ccc4ncsc4c3)nc12	.	-16.5%
4	Cc1nn(-c2ccc(C(=O)N3CCN(S(=O)(=O)c4ccccc4C(F)(F)F)CC3)cc2)c(C)c1Cl	.	6.4%
5	Cc1cccc(SCC(=O)Nc2ccccc2[N+](=O)[O-])c1	-0.9	4.1%
6	O=C(c1cccc(COCC(F)(F)C(F)F)c1)N1CCN(c2ccccc2)CC1	4.4	1.4%

nr	miR-21 reporter	Rango-impB inh
1	-5.0%	-1.1%
2	-3.7%	-0.5%
3	-34.5%	-0.8%
4	.	-0.2%
5	-16.6%	0.7%
6	-10.5%	0.1%

Results, repeating the preview:
nr	SMILES	GLA inh pH 4.5	Rango dissoc inh
1	COC(=O)COc1ccc(NS(=O)(=O)c2cccc([N+](=O)[O-])c2)cc1	5.8	2.0%
2	Cn1c(=O)oc2cc(S(=O)(=O)N3CCN(c4ccccc4)CC3)ccc21	-3.5	-0.2%
3	Cc1cccc2sc(N(CCCN(C)C)C(=O)c3ccc4ncsc4c3)nc12	.	-16.5%
4	Cc1nn(-c2ccc(C(=O)N3CCN(S(=O)(=O)c4ccccc4C(F)(F)F)CC3)cc2)c(C)c1Cl	.	6.4%
5	Cc1cccc(SCC(=O)Nc2ccccc2[N+](=O)[O-])c1	-0.9	4.1%
6	O=C(c1cccc(COCC(F)(F)C(F)F)c1)N1CCN(c2ccccc2)CC1	4.4	1.4%
7	CS(=O)(=O)N(CCc1ccccc1)CC(=O)Nc1ccc2c(c1)OCO2	-5.4	-1.2%
8	O=Cc1sc(=O)n(Cc2cccc(C(=O)O)c2)c1Cl	-4.1	?
9	CCN1C(=O)C(=O)N(CC(=O)Nc2cc(C)ccc2C)C1=O	.	-19.8%
10	Cc1nc(SCC(=O)c2ccc(F)c(F)c2)[nH]c(=O)c1Oc1ccc(F)cc1	-3.1	0.1%
11	COC(=O)Cn1c(=NC(=O)CN2C(=O)CCC2=O)sc2cc(S(N)(=O)=O)ccc21	-11.6	-3.8%
12	Cc1cnc(C(=O)OCC(=O)Nc2cccc(S(=O)(=O)N3CCOCC3)c2)cn1	.	3.7%

nr	miR-21 reporter	Rango-impB inh
1	-5.0%	-1.1%
2	-3.7%	-0.5%
3	-34.5%	-0.8%
4	.	-0.2%
5	-16.6%	0.7%
6	-10.5%	0.1%
7	-8.7%	-5.6%
8	1.1%	?
9	.	2.2%
10	3.0%	-1.7%
11	-4.5%	-2.5%
12	.	2.5%

Remaining list, next part.
nr	SMILES	GLA inh pH 4.5	Rango dissoc inh
13	CCOC(=O)c1ccc(NC(=S)NCC(O)c2ccccc2)cc1 (centres undefined)	4.6	0.9%
14	CCOc1ccc(C2C(C#N)=C(N)N3C(=C2C#N)Sc2ccccc23)cc1 (centres undefined)	-2.8	?
15	Cn1nc(C(C)(C)C)cc1C(=O)NNC(=O)c1ccccc1Cl	-0.7	0.5%
16	Cc1cc(NS(=O)(=O)c2ccc(NC(=S)NCc3ccccc3)cc2)no1	-2.7	0.0%
17	CN(C)S(=O)(=O)c1cccc(NC(=O)CCCSc2ccccc2)c1	.	3.1%
18	CNC(=S)NNC(=O)c1ccccc1F	1.4	0.9%
19	CCCNc1c(N)n(-c2ccccc2)c(=O)[nH]c1=O	-12.8	-6.1%
20	O=C1SCCN1N=Cc1ccc([N+](=O)[O-])o1	.	0.5%
21	CCOc1ccc(NC(=S)Nc2ccc(Br)cc2Cl)cc1	4.5	1.0%
22	O=C(Oc1ccccc1)c1c(Cl)cccc1P(=O)(O)O	1.0	2.0%
23	COc1ccc2c(c1)CCC(C)N2C(=O)C(=O)c1c[nH]c2ccccc12 (centres undefined)	-9.7	43.4%
24	CCCc1nnc(NC(=O)CN2CCOCC2)s1	7.9	-7.2%

nr	miR-21 reporter	Rango-impB inh
13	-4.0%	-4.2%
14	-21.3%	?
15	16.3%	-0.7%
16	-5.7%	2.8%
17	1.8%	-3.1%
18	-1.4%	-1.4%
19	-11.5%	-2.9%
20	.	-2.6%
21	-2.8%	-0.3%
22	-15.0%	0.0%
23	14.9%	-0.6%
24	-5.6%	7.0%

More compounds follow:
nr	SMILES	GLA inh pH 4.5	Rango dissoc inh
25	O=C(CCc1ccc(S(=O)(=O)NCc2ccccc2)cc1)NCc1cccnc1	-1.5	?
26	O=C(COC(=O)Cc1ccc(F)cc1)NC1CCCCC1	.	-2.5%
27	CC(C)c1ccc(NC(=O)c2sccc2-n2cccc2)cc1	-9.8	-17.5%
28	COc1cc(Br)cc2cc(C(=O)N3CCOCC3)c(=O)oc12	.	12.3%
29	CC(=O)Nc1cccc(NC(=O)c2c(-c3ccccc3)noc2C)c1	-5.8	9.1%
30	COc1cc(/C=N/NC(=O)CNS(=O)(=O)c2ccc(C)cc2)cc(OC)c1OC	.	-6.9%
31	CC(C)Cc1ccc(C(C)C(=O)Nc2ncccn2)cc1 (centres undefined)	0.0	12.8%
32	Cc1ccc(/C=C/C(=O)Nn2cnnc2)cc1	8.8	1.0%
33	Cc1ccccc1C(OCCN(C)C)c1ccccc1 (centres undefined)	6.6&-9.6&-16.0&-9.1	0.0%&23.4%
34	COC(=O)CNC(=O)Cn1cnc2sc(C)c(S(=O)(=O)N3CCN(c4ccccc4OC)CC3)c2c1=O	.	4.6%
35	O=C(CNC(=O)c1ccccc1)OCCCOC(=O)CNC(=O)c1ccccc1	.	8.6%
36	O=C(CSc1nc2ccccc2[nH]1)Nc1c(F)c(F)c(F)c(F)c1F	8.7	9.4%

nr	miR-21 reporter	Rango-impB inh
25	-2.4%	?
26	.	-2.6%
27	-42.5%	-2.8%
28	0.5%	0.1%
29	9.0%	-4.2%
30	.	1.3%
31	-0.8%	-0.4%
32	-2.4%	2.0%
33	-8.5%&-0.4%	4.2%&0.2%
34	6.3%	3.4%
35	-0.7%	0.4%
36	2.6%	0.6%

Results in Rango dissoc inh, miR-21 reporter and Rango-impB inh (2 entries from above):
| # | Compound | Rango dissoc inh | miR-21 reporter | Rango-impB inh |
| --- | --- | --- | --- | --- |
| 19 | CCCNc1c(N)n(-c2ccccc2)c(=O)[nH]c1=O | -6.1% | -11.5% | -2.9% |
| 20 | O=C1SCCN1N=Cc1ccc([N+](=O)[O-])o1 | 0.5% | . | -2.6% |

(list continues)
nr	SMILES	GLA inh pH 4.5	Rango dissoc inh
37	COc1ccc2oc(=O)c(-c3nnc(N)s3)cc2c1	7.9	?
38	Nc1ncnc2c1ncn2[C@@H]1O[C@H](CNS(=O)(=O)C2CC2)[C@@H](O)[C@H]1O	.	-12.6%
39	N=c1c(S(=O)(=O)c2ccc(F)cc2)cc2c(=O)n3ccccc3nc2n1CC1CCCO1 (centres undefined)	.	?
40	C/C(=N\NC(=O)c1cccs1)c1ccc2ccccc2c1	.	20.4%
41	Nc1ccc(C#Cc2ccc3oc4ccccc4c(=O)c3c2)cc1	.	35.5%
42	O=C1NCCN1Cc1ccccc1	1.2	7.3%
43	CC1(CC(=O)N/N=C/c2ccc(-c3ccc(Cl)cc3)o2)OCCO1	7.3	-0.6%
44	Cc1cccc(-n2nc3c(c2NC(=O)c2ccc(Br)o2)CSC3)c1	-10.6	-5.0%
45	O=C(Cc1coc2cc(O)ccc12)N1CCN(S(=O)(=O)c2ccc(Br)cc2)CC1	.	-16.4%
46	Cc1ccccc1-c1cnn(-c2cccc([N+](=O)[O-])c2)c1N	8.9	-0.6%
47	O=C(Nc1nc(-c2ccccn2)cs1)c1ncc(Cl)c(Cl)c1Cl	1.1	18.1%
48	Cc1ccc(-c2c(C(=O)Nc3ccccc3C)c(C)[nH]c(=S)c2C#N)o1	2.9	-23.2%

nr	miR-21 reporter	Rango-impB inh
37	-32.8%	?
38	.	?
39	-4.5%	?
40	-28.6%	0.9%
41	.	2.2%
42	-0.2%	-0.4%
43	-9.1%	?
44	-1.0%	0.0%
45	.	-4.7%
46	-23.6%	-1.6%
47	17.9%	-0.2%
48	-3.1%	?

(list continues)
nr	SMILES	GLA inh pH 4.5	Rango dissoc inh
49	COc1ccc(C(CNc2nc(-c3cccnc3)nc3ccccc23)N(C)C)cc1 (centres undefined)	.	-13.5%
50	Cc1ccc(C(=O)Nc2ccc(N3CCOCC3)cc2)cc1	-10.9	-3.4%
51	Cc1ccc(-c2nnn(CC(=O)NCc3ccccc3)n2)c(-n2cnnn2)c1	-1.5	2.3%
52	C#CCOCCOCCOCCNc1nc(N2CCN(C(=O)[C@H]([C@@H](C)CC)n3cc([C@@H](N)Cc4ccc(O)cc4)nn3)CC2)nc(N2CCN(C(=O)[C@H](Cc3ccc(O)cc3)n3cc([C@@H](N)C(C)CC)nn3)CC2)n1 (some centres undefined)	-2.8	-3.4%
53	CCCc1cc(=O)n2[nH]c(NCc3c(Cl)cccc3Cl)nc2n1	1.9	9.8%
54	COc1ccc(NC(=O)CSc2cn[nH]n2)cc1OC	.	-5.0%
55	CC1(CCc2ccccc2)NC(=O)NC1=O (centres undefined)	.	1.5%
56	O=C(COc1ncnc2scc(-c3ccccc3)c12)NCCN1C(=O)CSC1=O	0.4	.
57	CCOC(=O)c1c(/N=C/c2cc([N+](=O)[O-])ccc2O)sc(C)c1C	-5.9	-5.8%
58	Cc1nc2c(ccc3nc(NC(=O)C4CC4)sc32)s1	2.5	13.0%
59	O=C(CN(Cc1ccccc1F)S(=O)(=O)c1ccc(Cl)cc1)NCC1CCCO1 (centres undefined)	.	8.0%
60	COc1cc(Cn2c(=O)c3c(OC)c(C)cnc3n(C)c2=O)cc(OC)c1	.	-7.2%

nr	miR-21 reporter	Rango-impB inh
49	8.5%	-1.0%
50	-44.6%	-2.3%
51	-1.9%	0.5%
52	-0.2%	0.4%
53	6.1%	-2.1%
54	-4.5%	-3.2%
55	.	0.1%
56	-0.8%	.
57	-12.4%	-0.9%
58	-5.2%	-4.1%
59	-5.0%	-3.6%
60	2.8%	5.2%

(listing goes on)
nr	SMILES	GLA inh pH 4.5	Rango dissoc inh
61	COc1cc(CNCCSc2nnnn2C)cc(OC)c1OC	-1.9	8.9%
62	Cc1ccccc1Nc1nc(N)nc(CN2CCN(c3ccccn3)CC2)n1	4.1	-13.7%
63	COC(=O)c1cc(C(=O)OCC(=O)NCc2cccs2)cc([N+](=O)[O-])c1	.	30.2%
64	CCCc1ncc(C(O)c2cccc3ccccc23)n1C (centres undefined)	1.4	31.5%
65	O=C(CSc1nnc(CNC(=O)c2ccccc2)o1)Nc1ccc2c(c1)OCO2	.	3.2%
66	CCN1C(=O)[C@@H]2[C@@H](c3ccc(-c4ccc(F)cc4)cc3)N3CCC[C@@]3(C(=O)OC)[C@@H]2C1=O	.	-4.2%
67	O=C(O)COCC(=O)Nc1ccc(OCCc2ccccc2)cc1	.	-27.8%
68	CC(NC(=O)C1CCN(S(=O)(=O)c2cnc[nH]2)CC1)c1ccccc1 (centres undefined)	2.7	-5.6%
69	Cc1ccc(S(=O)(=O)NCC(=O)OCCOc2ccc(Br)cc2)cc1	.	0.7%
70	COc1cccc(/C=N/N2C(=O)C3C4c5ccccc5C(c5ccccc54)C3C2=O)c1OC (centres undefined)	-6.1	.
71	C#CC1(NC(=O)NC(C)(C)C)CCCCC1	5.1	12.3%
72	Cc1nn(C)cc1S(=O)(=O)NCc1ccc2c(c1)OCO2	.	-5.3%
73	COc1ccc(/C=C\c2nc(O)c([N+](=O)[O-])c(=O)[nH]2)cc1O	.	-0.6%

nr	miR-21 reporter	Rango-impB inh
61	0.8%	0.6%
62	-11.9%	2.1%
63	.	4.4%
64	2.5%	-2.0%
65	2.8%	-1.8%
66	.	-0.3%
67	-3.6%	-1.7%
68	-1.1%	-4.9%
69	.	?
70	-4.3%	.
71	1.0%	-3.5%
72	-0.3%	0.2%
73	-2.7%	-0.4%
